Compound activity (PubChem)
Cruzain Triton = blocks cruzain activity in presence of Triton detergent; Potency, µM, inactives show max response, negative = inhibition, usual class: inhibitors; AID 1478; purified cruzain, Z-FR-AMC fluorescence, 0.01% Triton; 0.43% of 200,000 active; P25779; active = well fitted curve in the direction sought with a large enough effect; inconclusive = small, poorly fitted or top-dose-only effect, or another doubt; inactive = no such curve, though single readings can be large; an effect the other way counts as inactive or inconclusive;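 note: plate controls were neutral wells for no effect and buffer without enzyme for full effect; nearly all actives have a fitted effect of over 40% in size; top concentration of the series not given in the record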
Target sequence (P25779 123-467 limits assumed): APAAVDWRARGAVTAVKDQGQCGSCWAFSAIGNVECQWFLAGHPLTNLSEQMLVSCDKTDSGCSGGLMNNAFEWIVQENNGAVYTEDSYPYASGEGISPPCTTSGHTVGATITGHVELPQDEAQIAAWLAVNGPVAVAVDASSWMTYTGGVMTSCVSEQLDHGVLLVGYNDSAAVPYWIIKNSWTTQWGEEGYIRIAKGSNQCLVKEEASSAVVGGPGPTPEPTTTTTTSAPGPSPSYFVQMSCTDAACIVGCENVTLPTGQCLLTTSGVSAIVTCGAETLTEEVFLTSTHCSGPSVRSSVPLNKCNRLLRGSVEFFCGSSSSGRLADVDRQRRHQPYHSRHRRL
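Cruzain (1.5 nM) preincubated 15 min at RT with compound in 100 mM sodium acetate pH 5.5, 5 mM DTT, 0.01% Triton X-100. Reaction started with 2 uM Z-FR-AMC; AMC fluorescence (ex 360/em 450 nm) change over 60 s gave rate.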
StopGo reporter = FMDV 2A StopGo reporter, luciferase signal. Potency, µM (top dose mostly 57.9 µM), for inactives: at the top dose signal change, negative = less light. human cells with a luciferase reporter of 2A StopGo recoding; control for the full effect not named in the record. 1.2% of 410,000 active; active = well fitted falling curve with a large enough effect; inconclusive = small, poorly fitted or top-dose-only effect; inactive = no such curve, though single readings can be large or run the other way; tested in HEK293T cells; note: % is set by controls: 0 for no effect and ±100 for the full control effect; nearly all actives have a fitted effect of over 45% in size; luciferase light after 4 h
RE007 growth inh = less growth of the S. pombe RE007 Vpr strain; S. pombe RE007 Vpr strain, BacTiter-Glo ATP luminescence, 24 h; control for the full effect not named in the record; Potency, µM (highest dose often 92.2 µM), for the others: at the top dose activity change, negative = less growth; 0.21% of 360,000 active; active = well fitted falling curve with a large enough effect; inconclusive = small, poorly fitted or top-dose-only effect; inactive = no such curve, though single readings can be large or run the other way;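 note: % is set by controls: 0 for no effect and ±100 for the full control effect; nearly all actives have a fitted effect of over 50% in size; the assay follows cell death caused by Vpr and the record does not say whether a fall means rescue or toxicity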
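Fission yeast strain RE007, carrying one chromosomally integrated HIV-1 vpr copy, was seeded at OD 0.01 in PMG+AL medium with 23 nL pinned compound. After 24 h at 30 °C and 99% humidity, viability was read by BacTiter-Glo luminescence.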
NS1 function inh = influenza NS1 inhibition. Potency, µM (top dose mostly 46.1 µM), for the others: at the highest dose activity, positive = more growth. S. cerevisiae slowed by influenza A NS1, growth recovery by OD600. 0.4% of 270,000 active; note: actives are rising curves; nearly all actives have a fitted effect of over 50% in size
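Growth recovery, yeast-based: influenza A NS1 expressed in S. cerevisiae causes slow growth, and suppressors are detected by OD600. The parent strain without NS1 is used as positive control.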
Cruzain noTriton = inhibitors of Trypanosoma cruzi cruzain without detergent; AID 1476; Potency, µM, for inactives: max response, negative = inhibition, actives largely listed as inhibitors; P25779; 2.3% of 200,000 active; purified cruzain, Z-FR-AMC fluorescence, no detergent; active = well fitted curve in the direction sought with a large enough effect; inconclusive = small, poorly fitted or top-dose-only effect, or another doubt; inactive = no such curve, though single readings can be large; an effect the other way counts as inactive or inconclusive;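 note: plate controls were enzyme without inhibitor for no effect and buffer without enzyme for full effect; nearly all actives have a fitted effect of over 40% in size; top concentration of the series not given in the record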
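Purified cruzain at 1.5 nM, pre-incubated 15 min with compound at room temperature in 100 mM sodium acetate pH 5.5, 5 mM DTT, 0.00005% Triton X-100. Reaction started with 2 uM Z-FR-AMC; AMC fluorescence increase over 60 s gives rate.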
MARV entry inh = inhibitors of Marburg virus binding or cell entry; Potency, µM (titrated, usually from 37.8 µM), for the others: at the top dose activity change, negative = inhibition, hits mostly inhibitors; 1.8% of 300,000 active; Marburg virus pseudotyped entry inhibition, cell reporter; control for the full effect not named in the record; about a third of the inactives were read at about 46 µM; active = well fitted inhibition curve with a large enough effect; inconclusive = small, poorly fitted or top-dose-only effect, or effect the other way; inactive = flat fitted curve, though single readings scatter; tested in HEK293 cells; about a fifth of its hits are not listed in these tables; note: % is set by controls: 0 for no effect and ±100 for the full control effect; luciferase read-out
SARS PLP yeast = inhibitors of SARS-CoV papain-like protease in yeast; 0.19% of 330,000 active; S. cerevisiae expressing SARS-CoV PLpro, growth rescue; control for the full effect not named in the record; Potency, µM (titrated, usually from 32.9 µM), for inactives: at the highest dose activity, positive = growth rescue; note: 0% is about no effect; nearly all actives have a fitted effect of over 55% in size; growth read by luminescence after 48 h
Lassa entry inh = blocks Lassa virus binding to or entry into cells; Lassa virus pseudotype entry inhibition, cell reporter; control for the full effect not named in the record; Potency, µM (highest dose often 37.9 µM), inactives show at the top dose activity change, negative = inhibition, hits mostly inhibitors; 1.2% of 300,000 active; AID 540256; active means well fitted inhibition curve with a large enough effect; inconclusive means small, poorly fitted or top-dose-only effect, or effect the other way; inactive means flat fitted curve, though single readings scatter; tested in HEK293 cells; note: % is set by controls: 0 for no effect and ±100 for the full control effect; nearly all actives have a fitted effect of over 50% in size; luciferase read-out
Active calls of the source: *; ? = inconclusive; · = not tested or not shown; & = joins results of further samples; [ ] = dose if it differs, or a comment. Unless noted, calls come from the whole dose curve; as a rule, active means well fitted rising curve with a large enough effect; inconclusive means small, poorly fitted or top-dose-only effect; inactive means no such curve, though single readings can be large or run the other way. Potency is the fitted concentration of half-maximal effect.

SMILES	Cruzain Triton	StopGo reporter	RE007 growth inh	NS1 function inh	Cruzain noTriton	MARV entry inh	SARS PLP yeast	Lassa entry inh
CC1(C2CC2)NC(=O)N(CC(=O)N2CCN(S(=O)(=O)c3ccc(F)c(F)c3)CC2)C1=O (stereo unspecified)	·	10.7%	-7.4%	·	·	?	9.8%	9.9%
NS(=O)(=O)c1ccc(CCNC(=O)c2ccccc2F)cc1	2.5%	25.1%	-0.7%	-7.1%	-20.1%	15.3%	-5.3%	14.7%
Cn1c(-c2nonc2N)nc2ccccc21	·	10.3%	1.6%	19.5%	·	·	9.9%	·
COc1ccc(S(=O)(=O)N(Cc2nc(-c3cccc(C)c3)no2)C2CCCCC2)cc1	-4.4%	-3.9%	·	·	-28.2%	?	·	-0.7%[46.1 µM]
O=C(c1cncc(Br)c1)N1CCN(c2ccc(N3CCOCC3)nn2)CC1	1.0%	-9.6%	5.7%	-15.3%	-9.2%	·	-6.3%	·
Cc1cc(Cl)ccc1N=C1N=C(N)c2ccccc21	-1.2%	0.3%	6.3%	-3.8%	0.1%	?	-1.9%	?
Cc1nc(N2CCN(C(=O)c3ccco3)CC2)c2c3c(sc2n1)CCC3	-0.9%	?	-17.5%	-66.6%	-3.4%	10µM*	-5.0%	?
Cc1onc(-c2ccccc2)c1C(=O)Nc1cccc(OC(C)C)c1	-1.9%	-12.4%	-0.3%	-16.7%&-38.5%	17.9%	?	-2.2%	?
COc1ccc(NC(=O)N2CCCC2)cc1OC	4.6%	10.8%	0.2%	-1.9%	-6.5%	-13.8%	7.3%	-0.3%
Cc1cccc(N2CCN(C(=O)c3cc(C)oc3C)CC2C)c1 (stereo unspecified)	-2.5%	-24.9%	3.6%	-16.8%	-3.5%	0.1%	19.0%	?
CC(=O)Nc1ccc(/C=N/Nc2ccc(C(=O)c3c(C)cc4ccccn34)cc2[N+](=O)[O-])cc1	·	-24.7%	5.9%	8.9%	·	·	0.5%	·
COc1ccc(C(=O)CSc2nc3nc(C)cc(C)n3n2)cc1OC	-4.1%	·	7.1%	4.7%	4.1%	0.2%	3.0%	8.3%
CCc1c(C)nc(SCC(=O)N2CCN(c3ccccc3)CC2)[nH]c1=O	·	-16.4%	8.1%	·	·	3.7%[46.1 µM]	1.9%	16.3%[46.1 µM]
COCCCN1C(=O)C(=O)/C(=C(/O)c2ccc(OCC(C)C)cc2)C1c1cccnc1 (stereo unspecified)	1.3%	-8.3%	-4.2%	1.2%	7.4%	20.1%	4.8%	16.7%
O=C(Nc1cccc(-c2cccc(Cl)c2)c1)C1CCN(CC2CCOC2)CC1 (stereo unspecified)	·	27.7%	-13.6%	-15.1%	·	·	-2.0%	·
COc1cc(C(=O)Nc2cccc(NC(=O)c3ccccc3)c2)cc(OC)c1OC	·	-2.9%	6.8%	1.4%	·	·	-4.1%	·
Cc1ccc2[nH]c(C(=O)O)c(NC(=O)c3ccccc3[N+](=O)[O-])c2c1	-12.0%	-8.2%	12.7%	12.8%	-11.6%	14.2%	1.4%	6.9%
CCOC(=O)C1CCN(CC(=O)Nc2ccc(OC)c(Cl)c2)CC1	·	-8.9%	1.7%	·	·	1.1%[46.1 µM]	0.8%	?
CCOc1ccc(C(C(=O)NC2CCCCC2)N(CCOC)C(=O)c2snc(C(N)=O)c2N)cc1 (stereo unspecified)	·	8.8%	5.0%	18.5%	·	8.6%[46.1 µM]	4.3%	-21.6%[46.1 µM]
Cc1cc(C)c2c(N)c(C(=O)NN3CC(=O)N(c4ccccc4)CC3=O)sc2n1	·	-7.7%	-2.5%	-0.2%	·	·	0.1%	·
CCOc1cccc2cc(C(=O)N3CCc4ccccc43)c(=O)oc12	2.5%	50.3%[activator]	2.5%	1.8%	15.8µM*	27.1%	-5.9%	7.6%
Nc1ccc2c(c1)Oc1ccccc1C=C2	·	1.0%	-15.2%	·	·	-22.8%[46.1 µM]	-0.6%	?
c1ccc(-c2csc(N3CCSCC3)n2)cc1	·	23.7%	6.8%	·	·	11.1%[46.1 µM]	-3.1%	-4.0%[46.1 µM]
O=C(NCc1ccccc1)C(=O)NCC(c1ccco1)S(=O)(=O)c1cccs1 (stereo unspecified)	0.1%	-4.2%	·	·	8.1%	·	·	-5.7%[46.1 µM]
CN(C(=O)c1ccno1)c1nnc(-c2ccccn2)s1	3.1%	49.9%[activator]	-0.2%	-31.3%	2.0%	14.4%	-2.2%	8.3%
CCOC(=O)CNC(=O)Cn1c(C)cc2ccccc2c1=O	-0.6%	-0.4%	4.0%	-30.4%	-2.7%	-7.5%	0.4%	-0.8%
COc1ccc(-c2noc(C3CCCN(C(=O)c4ccccc4OC)C3)n2)cc1 (stereo unspecified)	·	-28.7%	7.7%	4.1%	·	?	-0.3%	-23.6%[46.1 µM]
Cc1ccc(C)c(NC(=S)Nc2ccc(S(=O)(=O)Nc3ncccn3)cc2)c1	-0.5%	-14.9%	24.5%	10.2%	5.1%	2.8%	-14.7%	-1.6%
CC(=O)C1=C(C)Nc2ncnn2C1c1ccc(Cl)cc1 (stereo unspecified)	0.3%	7.0%	22.6%	27.0%	-4.2%	10.8%	3.2%	0.0%
O=C(CSc1nc2c([nH]c3ccccc32)c(=O)n1-c1ccc(F)cc1)N1CCCCCC1	-0.6%	-14.3%	·	·	7.3%	·	·	8.0%[46.1 µM]
COC(=O)c1cc(CSc2ncnc3sccc23)oc1C	·	-29.3%	7.8%	-2.8%	·	·	-0.5%	·
COc1ccccc1NC(=O)Cn1c(SCC(=O)Nc2ccc(F)cc2)nc2ccccc21	-3.7%	-21.1%	·	·	11.1%	·	·	13.3%[46.1 µM]
O=C(COc1ccc([N+](=O)[O-])cc1)NCc1ccncc1	·	-6.3%	2.1%	·	·	7.4%[46.1 µM]	0.4%	-7.1%
COCCCNC(=O)CC1C(=O)N(Cc2ccccc2)C(C)c2nc3ccccc3n21 (stereo unspecified)	·	1.6%	1.4%	·	·	11.2%[46.1 µM]	-4.2%	8.5%[46.1 µM]
Cc1cc(NC(=O)CSc2nnc(-c3ccc4c(c3)OCCO4)o2)no1	2.1%	5.1%	-1.9%	-3.8%	21.2%	?	0.4%	?
Cc1ccc(CNC(=O)C2CCCN(c3ncnc4onc(-c5ccc(F)cc5)c34)C2)cc1 (stereo unspecified)	-3.3%	-13.6%	·	·	0.8%	·	·	4.3%[46.1 µM]
O=C(CNC(=O)c1ccccc1)OCC(=O)c1ccccc1Cl	·	-4.6%	16.4%	-2.7%	·	?	1.5%	6.0%[46.1 µM]
COc1ccc(CC(=O)O/N=C(\N)Cc2cccc3ccccc23)cc1	-7.0%	-8.4%	1.5%	-11.8%	10.3%	17.8%	-54.8%	-18.8%
COc1ccc2c(c1OC)C(=O)OC2N1C(=O)CC[C@H]1C(=O)NCC1CCCO1 (stereo partly specified)	·	-14.1%	3.0%	-8.2%	·	·	-4.5%	·
COCCCNc1nc2c(c(=O)[nH]c(=O)n2C)n1CC(O)COc1ccccc1 (stereo unspecified)	-0.5%	6.4%	-6.5%	3.8%	13.8%	20.5%&20.5%	-3.0%	-5.4%
CCCCC(=O)Nc1nc(-c2ccc(S(=O)(=O)N3CCOCC3)cc2)cs1	·	?	9.2%	-4.5%	·	-25.1%	1.3%	?
CCOP(=O)(c1ccccc1)c1nc(-c2ccc(F)cc2)oc1N1CCCCC1 (stereo unspecified)	-19.6%	?	-3.0%	-7.7%	?	-1.8%&-1.8%	2.3%	-20.8%
Nc1nc(-c2ccccc2)c(-c2ccccc2)o1	·	16.8%	-3.4%	2.8%	·	-12.2%[46.1 µM]	0.2%	·
Cc1nnc(SC(=O)N2c3ccccc3Sc3ccccc32)s1	-1.5%	·	-0.1%	-9.3%	-1.8%	?	18.4%	20.6µM*
CC1(C)CC(=O)c2cc(C(=O)Nc3ccccc3Cl)c(=O)n(-c3ccc(Cl)cc3)c2C1	1.7%	0.0%	·	·	-0.7%	·	·	?
Cc1cc(C)c2c(=O)n(CC(=O)NCCCN3CCN(c4ccccc4F)CC3)sc2n1	-3.2%	?	?	2.6%	2.4%	·	-21.1%	·
CCn1c(=O)c2cc(C(=O)NC3CCCCCC3)sc2c2ccccc21	-6.9%	21.9%	·	·	5.2%	2.5%[46.1 µM]	·	0.2%[46.1 µM]
CSc1ccc(Cn2nnc(C(=O)NCCc3ccc(Cl)cc3)c2N)cc1	·	-16.7%	1.7%	3.5%	·	·	0.3%	·
CCN(CC)c1ccc(/C=N\NC(=O)c2cccc3cc[nH]c23)cc1	·	16.3%	-5.7%	-9.9%	·	-7.9%	-0.6%	?
COC(=O)CC/C(O)=C1\C(=O)CC(C)(C)CC1=Nc1ccccc1OC	-0.3%	-23.6%	6.4%	-4.7%	1.5%	?	-1.9%	21.6%
Cc1ccc(C(=O)Nc2cccc(-c3nc4ncccc4o3)c2)cc1	·	?	0.8%	1.6%	·	?	0.1%	-12.4%
CCN(CC)S(=O)(=O)c1ccc2nc(NC(=O)c3ccccc3OC)sc2c1	0.0%	?	·	·	13.8%	·	·	?
CCCCOC(=O)NC(NCC(O)c1ccccc1)(C(F)(F)F)C(F)(F)F (stereo unspecified)	-0.4%	-12.8%	12.1%	2.8%	4.9%	?	-1.5%	?
Cc1oc2ncn(CC(C)C)c(=O)c2c1C(=O)NCCCN1CCCCC1C (stereo unspecified)	-0.3%	0.4%	·	·	1.2%	·	·	15.4%[46.1 µM]
c1ccc(-c2cnnc(N3CCOCC3)n2)cc1	2.5%	13.2%	-18.5%	-2.0%	-5.1%	·	14.5%	-0.1%
CC1CCCN(Cc2c(O)ccc3c(=O)c(-c4nc5ccccc5s4)c(N)oc23)C1 (stereo unspecified)	-29.2%	-8.1%	4.6%	-26.7%	-15.8%	?	-4.8%	?
COc1ccc(NC(=O)CSc2ccc(-c3ccco3)nn2)c(OC)c1	·	-16.2%	14.7%	-14.3%	·	-19.1%[46.1 µM]	-2.6%	-4.5%[46.1 µM]
